# Mtb growth = Confirmatory growth inhibition assay against Mycobacterium tuberculosis H37Rv, potency (AID 1949). most inactive calls were filed without a number and no value below 0 was filed. one-dose inhibition, % at 10 µg/mL; IC50 in µg/mL for titrated hits. 100,000 tested, 1.6% active;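 active = confirmed in a dose series; inconclusive = about 50% or more but not retested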;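 note: bacteria grown 7 days with compound before Alamar blue readout; 0% = untreated bacteria and 100% = reference antibiotic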
# Numbers without * were called inactive; i = inactive; ? = inconclusive.
SMILES,Mtb growth
CC(C)(C)C(=O)NC(=S)N1CCN(c2c(F)c(F)c(F)c(F)c2F)CC1,?
COc1ccccc1CNC(=O)c1ccc(N(Cc2ccccc2)S(C)(=O)=O)cc1,i
COc1ccc2cc(C(=O)Nc3ccccc3OC)c(=O)oc2c1,i
O=c1/c(=C/c2cccs2)sc2nnc(-c3ccccc3Cl)n12,i
CSc1ccccc1C(=O)NCc1ccco1,i
O=C(CN1CCOCC1)Nc1c(-c2ccccc2)c2cc(Br)ccc2[nH]c1=O,4.0%
COc1ccc(NS(=O)(=O)c2ccc(SC)cc2)cc1,i
Cc1cc(Br)cc(C)c1NC(=O)CSc1ccc(Cl)cc1,2.1%
COc1ccc(C2C3C(=O)N(C(C)C)C(=O)C3ON2c2ccccc2)c(OC)c1 (stereo not given),i
COC(=O)c1ccc2c(c1)SC1=C(CCCC1=O)N2,3.0%
O=C(NC(c1ccccc1)c1ccccc1)C1CC1,0.7%
CCOCC(=O)Nc1nc2ccc(OC)cc2s1,i
Cc1cc(C)cc(OCC(=O)Nc2ccc(S(=O)(=O)N3CCCCCC3)cc2)c1,i
COCCn1c(-c2ccc(C(C)(C)C)cc2)n[nH]c1=S,i
O=C(COc1ccc(-n2cnnn2)cc1)Nc1cccc(Cl)c1Cl,i
CCn1cc2c(c1-c1ccccc1)c(=O)n(C)c(=O)n2C,i
O=[N+]([O-])c1ccccc1C1Nc2ccc(Cl)cc2C2C=CCC21 (stereo not given),10.5µg/mL*
CSc1ccccc1NC(=O)C1CCCN(S(C)(=O)=O)C1 (stereo not given),0.9%
COc1ccc(/C(N)=N/OC(=O)c2ccc(C)cc2C)cc1,11.2%
COC(=O)c1ccccc1COn1c(=O)c[n+]([O-])c2ccccc21,i
Cc1ccccc1C(=O)Nc1ccccc1N1CCOCC1,i
Cc1cc(OCC(=O)Nc2cccc([N+](=O)[O-])c2)c(C(C)C)cc1Br,i
Cc1cc(C)c(C#N)c(SCCS(=O)(=O)c2nc3ccccc3s2)n1,3.3%
COc1cc2oc(=O)c(CC(=O)N3CCCC3)c(C)c2cc1OC,i
CCOc1ccc(NC(=O)Nc2cc(C)on2)cc1,i
O=C(CCCN1C(=O)c2ccccc2C1=O)OCc1ccccc1Cl,i
CCOc1ccc(OCc2cccc(C(=O)N(CC)CC)c2)cc1,2.4%
O=C(NC(=S)Nc1ccccc1)C(c1ccccc1)c1ccccc1,i
O=[N+]([O-])c1cccc(C2C=C(c3ccccc3Cl)Nc3nnnn32)c1 (stereo not given),23.1%
Cc1ccc(SCCC(=O)Nc2ccc(C)cc2C)cc1,3.7%
CCN(CC)c1ccc(NC(=S)Nc2cc(Cl)ccc2OC)cc1,i
CN(C)N1C(N)=C(C#N)C(c2cccnc2)C2=C1CC(C)(C)CC2=O (stereo not given),i
O=C(O)CCCNS(=O)(=O)c1ccc(Br)s1,i
Cc1cc(Br)cc(C)c1OCC(=O)Nc1cccc(Cl)c1Cl,i
COc1ccc(C)cc1S(=O)(=O)NC1CCCC1,i
CC(=O)Oc1ccc2c(=O)oc(-c3ccccc3I)nc2c1,i
Cc1cccc(NC(=O)CCOc2ccccc2)c1,i
O=C1C2C3C=CC(C3)C2C(=O)N1N1CCCCC1 (stereo not given),i
O=C(Cc1ccccc1)Nc1ccc2oc(-c3cccc(Cl)c3)nc2c1,i
CCOc1ccc(CNCc2ccccn2)cc1,14.8%
C=CCn1c(=N)c(S(=O)(=O)c2ccc(Cl)cc2)cc2c(=O)n3ccccc3nc21,i
O=C(Nc1cccc(F)c1)C(=O)NC1CC1,i
COC(=O)c1cc(OC)c(OC)cc1NC(=O)c1cc(Cl)ccc1OC,i
Cc1ccc2oc(-c3ccc4c(c3)C(=O)N(C)C4=O)nc2c1,i
COCCNC(=S)NNC(=O)c1nn(C)c(C)c1Br,i
CCCN1CCN(C(=S)Nc2ccc(S(N)(=O)=O)cc2)CC1,i
Cc1ccc(-c2csc3ncnc(SCC(=O)c4cccc([N+](=O)[O-])c4)c23)cc1,1.5%
CCc1cccc(CC)c1NC(=O)C(c1ccccc1)c1ccccc1,i
Cc1cc(C(F)F)n2nc(C(=O)Nc3ccc(Cl)c(Cl)c3)nc2n1,2.1%
CC1CCN(C(=O)C(c2ccccc2)c2ccccc2)CC1,i
COC(=O)c1ccc(OCC(=O)c2ccccc2)cc1,40.7%
Cc1cc(OC(=O)CCCNC(=O)OCc2ccccc2)cc2oc(=O)c3ccccc3c12,i
COc1ccc(NC(=O)CN(Cc2ccc(Cl)cc2Cl)S(=O)(=O)c2ccccc2)cc1,i
COC(=O)c1ccccc1NC(=O)Nc1ccc(C(=O)N2CCCC2)cc1,9.5%
CC(=O)c1sc(NC(=O)CCN2C(=O)c3ccccc3C2=O)nc1C,0.5%
O=C(NC(=S)Nc1cc(C(F)(F)F)ccc1N1CCOCC1)c1cncc(Br)c1,i
O=C(Nc1ccc(S(=O)(=O)N2CCCC2)cc1)c1cc(F)c(F)cc1Cl,i
O=C(CSc1nnnn1-c1ccc(Cl)cc1)Nc1cccc(Cl)c1,i
CCCC(C)NC(=O)COc1ccccc1OC (stereo not given),i
O=C(Nc1nc2c(s1)CCc1ccccc1-2)c1ccc([N+](=O)[O-])cc1,i

# Part of the list above in order of molar mass, lowest first.
SMILES,Mtb growth
COc1ccc(C)cc1S(=O)(=O)NC1CCCC1,i
O=C(NC(=S)Nc1ccccc1)C(c1ccccc1)c1ccccc1,i
O=C(CCCN1C(=O)c2ccccc2C1=O)OCc1ccccc1Cl,i
O=C(Cc1ccccc1)Nc1ccc2oc(-c3cccc(Cl)c3)nc2c1,i

# Going on with the list.
SMILES,Mtb growth
O=C(NC(=S)NCCc1ccccc1)c1ccccc1F,4.1%
COc1ccc(C(=O)NC(=S)Nc2ccc(I)cc2F)cc1OC,i
O=c1[nH]c2ccc(NC(=S)Nc3ccccc3)cc2[nH]1,0.1%
CC1=C(C(=O)N(C)C)C(c2cccs2)NC(=S)N1 (stereo not given),i
O=C(Nc1ccc(Cl)cc1Cl)C1C(c2ccccc2)C1(Cl)Cl (stereo not given),i
Cc1cc(OCc2ccc(Br)cc2F)c2c(C)cc(=O)oc2c1,i
O=C(c1sc2cc(Cl)ccc2c1Cl)N1CCN(Cc2ccc3c(c2)OCO3)CC1,i
CCc1ccc(C(=O)N2CCN(c3ccc([N+](=O)[O-])c(NCCc4ccccc4)c3)CC2)cc1,3.9%
COc1ccc(/C(N)=N/OC(=O)COc2cc(C)c(Br)c(C)c2)cc1OC,i
N#Cc1c(SCC(=O)N2CCCCC2)nsc1SCC(=O)N1CCCCC1,i
Cc1ccc(CNn2c(C)n[nH]c2=S)cc1,i
CC(C)Cn1c(CCc2ccccc2)nnc1SCC(=O)Nc1ccc(F)cc1,1.1%
O=C(NC(=O)c1ccc(Cl)cc1)NC1CCCC1,i
C=CCn1c(-c2ccccc2[N+](=O)[O-])n[nH]c1=S,i
COCC(C)NC(=O)c1ccccc1OC(C)=O (stereo not given),i
O=C(NCc1ccc2c(c1)OCO2)Nc1ccc(F)cc1,i
COc1ccc(OC)c(C(=O)CC2(O)C(=O)Nc3ccc(C)cc32)c1 (stereo not given),i
Cc1ccc(NC(=O)CCC(=O)NNC(=S)Nc2ccc(F)cc2F)cc1C,i
Cc1nnc(SCCOc2ccccc2Cl)n1-c1ccc(F)cc1,0.8%
O=C(Nc1cccnc1)c1ccc(CN2CCC(Cc3ccccc3)CC2)cc1,2.2%
Cc1ccc(S(=O)(=O)Nc2ccccc2Sc2ccccc2)cc1[N+](=O)[O-],i
Cc1ccccc1CNC(=O)C(=O)Nc1ccccc1Cl,i
COC(=O)c1c(C)oc2ccc(OCC(=O)c3ccc(Cl)cc3)cc12,i
CCCNS(=O)(=O)c1ccc(OCC(=O)N2CCCC2)cc1,i
COCCNCCOCCOc1cc(C)cc(C(C)C)c1,i
CCOc1ccc(-c2nc3cc(NC(=S)NC(=O)c4ccco4)ccc3o2)cc1,i
COc1ccccc1NC(=O)c1ccc(COc2ccccc2Br)o1,i
CN(C)C(=S)NC(=O)C12CC3CC(C1)CC(c1ccccc1)(C3)C2,?
COCCCNC(=S)NNS(=O)(=O)c1ccc(OC)c(OC)c1,i
COc1ccc(Cl)cc1NC(=S)N1CCCCC1CO (stereo not given),i
OCCNc1nc(N2CCCC2)nc(N2CCCC2)n1,i
COc1ccc(/C(C)=N\N=C2/NC(=O)C(Cc3ccc(Br)cc3)S2)cc1 (stereo not given),i
O=C(Oc1ccc2ccccc2c1)c1ccncc1,16.8%
O=C(Nc1cccc(C(F)(F)F)c1)[C@H]1CC=CC[C@H]1C(=O)O,i
O=C1CC(N(Cc2ccc(F)cc2)C(=O)Nc2ccccc2)C(=O)N1c1ccc(Cl)cc1 (stereo not given),i
COc1cccc(C2CC(=O)Nc3cc4c(cc32)CCC4)c1OC (stereo not given),1.3%

# Gathered by group: the entries above containing bromine
SMILES,Mtb growth
O=C(CN1CCOCC1)Nc1c(-c2ccccc2)c2cc(Br)ccc2[nH]c1=O,4.0%
Cc1cc(Br)cc(C)c1NC(=O)CSc1ccc(Cl)cc1,2.1%
Cc1cc(OCC(=O)Nc2cccc([N+](=O)[O-])c2)c(C(C)C)cc1Br,i
O=C(O)CCCNS(=O)(=O)c1ccc(Br)s1,i
Cc1cc(Br)cc(C)c1OCC(=O)Nc1cccc(Cl)c1Cl,i
COCCNC(=S)NNC(=O)c1nn(C)c(C)c1Br,i
O=C(NC(=S)Nc1cc(C(F)(F)F)ccc1N1CCOCC1)c1cncc(Br)c1,i
Cc1cc(OCc2ccc(Br)cc2F)c2c(C)cc(=O)oc2c1,i
COc1ccc(/C(N)=N/OC(=O)COc2cc(C)c(Br)c(C)c2)cc1OC,i
COc1ccccc1NC(=O)c1ccc(COc2ccccc2Br)o1,i
COc1ccc(/C(C)=N\N=C2/NC(=O)C(Cc3ccc(Br)cc3)S2)cc1 (stereo not given),i

# New compounds follow.
SMILES,Mtb growth
Cc1ccc(N2C(=O)CC(N3CCOCC3)C2=O)cc1C (stereo not given),i
O=C(NC1C2CC3CC(C2)CC1C3)c1cc(Cl)ccc1Cl (stereo not given),4.8%
CCc1ccc(NS(=O)(=O)CC)cc1,i
CCSCC(=O)Nc1ccc(F)cc1,13.0%
COc1ccc(S(=O)(=O)N(CC(=O)N2CCCC2)c2ccc(F)cc2)cc1,i
CCc1cc2c(=O)c(-c3c(F)cccc3Cl)c(C)oc2cc1OC(C)=O,1.5%
COc1cccc(C(=O)CC2(O)C(=O)Nc3ccc(Cl)cc32)c1 (stereo not given),i
COc1cc(C(=O)Nc2sc3c(c2C(=O)NCC2CCCO2)CCC3)cc(OC)c1OC (stereo not given),47.4%
CC(=O)c1cccc(NC(=O)NNC(=O)c2ccccc2F)c1,1.1%
O=C(Cc1ccccc1)Oc1ccc(Br)cc1,i
COc1ccc(CC(=O)Nc2cc3oc4ccccc4c3cc2OC)cc1,i
Cc1cccc2c(N=NC(=O)c3ccccc3Cl)c(O)[nH]c12,21.0%
CCC(=O)Nc1ccc2c(c1)ncn2-c1ccccc1,4.7%
COc1ccc(NC(=O)C(C(C)C)N2C(=O)c3ccccc3C2=O)c(OC)c1 (stereo not given),i
CC(C)Oc1ccccc1-c1nc(SCC(=O)O)n[nH]1,i
Fc1ccc(NC(=S)NCCc2ccc(Cl)cc2)cc1,28.3%
CC(Sc1nc(-c2ccccc2)cc(C(F)(F)F)n1)C(=O)NN1CCOCC1 (stereo not given),i
COC(=O)c1cc(OC)c(OC)cc1NC(=O)c1ccccc1Cl,i
COc1cccc2cc(C(=O)C3=C(O)C(=O)N(CCCN4CCOCC4)C3c3ccc(C)cc3)oc12 (stereo not given),i
O=C(COc1ccc(Cl)cc1)NCc1cccc(CNC(=O)COc2ccc(Cl)cc2)c1,i
CCCCNCCCCCOc1ccc(Cl)cc1Cl,4.18µg/mL*
C/C=C/COc1nc2c(c(=O)n(C)c(=O)n2C)n1Cc1ccccc1F,i
COc1ccc(Cl)cc1NC(=O)CC1C(=O)NCCN1C(=S)Nc1ccccc1 (stereo not given),i
COc1ccc(Nc2nc(-c3sc(C)nc3C)cs2)c(OC)c1,32.5%
Cc1nnc(NC(=O)CSc2ncccn2)s1,i
Cc1ccc(SCc2cc(=O)n3[nH]cnc3n2)cc1,i
CCCC(=O)Nc1ccc(Cl)c(NC(=O)c2ccc(Br)cc2)c1,i
N#CCc1ccc(NC(=O)COc2cc(Cl)c(Cl)cc2Cl)cc1,i
Cc1ccc2oc(C(=O)Nc3cccc(I)c3)c(C)c2c1,i
Cc1ccc(S(=O)(=O)Nc2ccc(C(=O)NCCSc3ccccc3)cc2)cc1,i
O=C(CSc1nc2ccccc2c(=O)n1-c1ccc(Br)cc1)Nc1ccccc1C(F)(F)F,2.1%
O=C(Nc1ccccc1)N(Cc1ccccc1)Cc1ccco1,i
CCOC(=O)C1CCCN(Cc2nc(N)nc(Nc3ccc(Cl)cc3)n2)C1 (stereo not given),i
COc1ccc(CCn2c(-c3cccc([N+](=O)[O-])c3)nc(=S)c3c2CCCC3)cc1OC,i
C=CCn1c(SCC(N)=O)nc2scc(-c3ccc(C)o3)c2c1=O,i
COc1ccc(OCCCN(C)Cc2ccccc2)cc1,0.3%

# The last two compounds of the section before come first, to join the parts.
SMILES,Mtb growth
C=CCn1c(SCC(N)=O)nc2scc(-c3ccc(C)o3)c2c1=O,i
COc1ccc(OCCCN(C)Cc2ccccc2)cc1,0.3%
Nc1ncnc2c1c1nc3ccccc3nc1n2Cc1ccccc1,i
Cc1cc2c(c(=O)o1)C(CC(C)C)c1c(N)noc1-2 (stereo not given),i
CC(C)OC(=O)c1ccc(COC(=O)c2cc3ccccc3oc2=O)cc1,i
CCN1CCN(c2ncnc3sc4c(c23)CCCC4)CC1,i
Cc1ccc(C2C(C#N)=C(N)Oc3n[nH]c(-c4ccccc4)c32)c(C)c1 (stereo not given),3.0%
CC(=O)c1cccc(NC(=O)N(c2ccccc2)c2ccccc2)c1,i
Cc1ccc(-n2ncc3c2ncn2nc(COc4ccc(Cl)cc4)nc32)cc1,4.5%
O=C(Nc1ccccc1C(=O)NC1CCCCC1)c1ccc([N+](=O)[O-])cc1,i
Cc1ccc(S(=O)(=O)N2CCN(c3ccc([N+](=O)[O-])c(NCCN4CCOCC4)c3)CC2)cc1,i
O=C(CSCC(=O)N1CCCCC1)Nc1ccc2ccccc2c1,i
CC(=O)c1ccccc1OCCCN1CCN(C)CC1,i

# These rows are one share of the data; the hit share may differ from the screen's.
